PrP 5UTR inh = suppresses PrP 5' UTR mRNA reporter expression | 340,000 tested, 0.35% active | cell-based PrP 5' UTR mRNA reporter, plate reader | inhibition, % (concentration not given with the values);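 active means every replicate at 50% or more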;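 further: 0 = median of the neutral control wells; tested in H4 reporter cells; numbers are from one replicate; inactives centre near -14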
ugtP null kill = growth inhibition of S. aureus ugtP deletion strain; S. aureus RN4220 ugtP deletion, OD600 growth, 16 h; some inactives read as strong as hits; growth inhibition, % (no concentration beside the values); 330,000 tested, 0.54% active;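 active means z-score under -3 and OD600 up to 0.15 on both plates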;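 further: plate controls were untreated wells for no effect and antibiotic for full effect; wells of about 80 µL received 100 nL stock; the first replicate is given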
Autofluor counter = compound fluorescence in toxin protease inhibitor counterscreen; compound autofluorescence counterscreen, microsphere flow cytometry; active compounds read high; 360,000 tested, 3.1% active; fluorescence intensity (concentration not given with the values); AID 624483;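 active means at least 3 SD above the mean of all compounds, about 16000 in these data; inconclusive means too few beads counted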;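 further: 100 nL of 1 mM stock went into each well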
RN4220 kill = S. aureus RN4220 growth inhibition. OD600, 16 h. inhibition, % (concentration not given with the values). 330,000 tested, 0.33% active. AID 1259311;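 active means z-score of -3 or lower and OD600 up to 0.18 on both plates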;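 further: plate controls were untreated cells for no effect and reference antibiotic for full effect; stock transfer was 100 nL into about 80 µL; one replicate is shown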
BJeLR viability = kills HRASV12-expressing BJeLR cells; 300,000 tested, 0.17% active; inhibition, % (no concentration beside the values); BJeLR (HRASV12) viability, CellTiter-Glo ATP luminescence, 48 h; reference of the scale not given here;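 active means replicate mean above 50%; inconclusive means above 50% but judged a plate artefact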;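 further: 50 nL library stock added to about 25 µL; numbers are from one replicate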
Mtb hypoxia inh = reduces hypoxia-regulated biosensor signal in M. tuberculosis. M. tuberculosis hypoxia-regulated fluorescent reporter, fluorescence. fluorescence inhibition, % (no concentration beside the values). 300,000 tested, 0.1% active. AID 1159583;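 active means 35 to 45% if threefold the growth effect, above 45% if 1.5-fold the growth effect; inactive means the rest, general growth blockers included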;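 further: wells of about 50 µL received 100 nL stock; 0% = vehicle wells and 100% = reference inhibitor wells; whole bacteria with a GFP reporter of the hypoxia response; strong numbers were not always called active; many hits fall short of the cut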
Mtb hypoxia inh growth = also measured in Mtb hypoxia inh; calls as there; growth inhibition, %; measured here: M. tuberculosis growth (absorbance);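 0% = vehicle and 100% = reference antibiotic; read after six days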
* marks the source's active call; other numbers are inactive results; u = inconclusive; x = no result given. Rows were taken by chance. About 4.1% of those tested had a hit in this group.

Values run as follows: PrP 5UTR inh	ugtP null kill	Autofluor counter	RN4220 kill	BJeLR viability	Mtb hypoxia inh	Mtb hypoxia inh growth
- COc1ccc(OC)c(CC(NC(C)=O)C(=O)NC2CCN(S(=O)(=O)c3ccc(NC(C)=O)cc3)CC2)c1 (configuration not stated)
→ -8	x	3691	x	5	x	x
- Cc1cccc(NC(=O)N2CCCCCC2)c1
→ -11	-2	6096	1.2	1	-2	11
- O=C(O)c1ccc(Nc2nc3ccc(Cl)cc3[nH]2)cc1
→ -26	0	3023	0.5	-17	3	10
- O=[N+]([O-])c1ccc(Sc2nccn2Cc2ccccc2)cc1
→ -9	-3	5502	2.7	-12	9	12
- Cc1ccc(NC(=S)N2CCN(c3ccccn3)CC2)c(C)c1
→ -14	3	2117	2.0	-3	1	-1
- COc1ccc(-c2nn(-c3ccccc3)cc2/C=N/O)cc1OC
→ -11	x	3010	x	6	x	x
- COc1cc(NC(=O)c2ccc(F)cc2)c(OC)cc1NC(=O)CN1CCOCC1
→ -14	4	3531	5.4	6	3	13
- CCCS(=O)(=O)N1CCN=C1SCc1cccnc1
→ 0	8	1957	3.2	1	1	10
- COC(=O)c1sccc1NC(=O)CN(C)NS(=O)(=O)c1ccc(F)cc1
→ -17	1	4688	1.8	-12	11	15
- O=C(O)c1cc([N+](=O)[O-])ccc1NCc1cccnc1
→ 4	11	x	7.0	1	2	-8
- Cc1nn(CCC(=O)NNC(=S)Nc2cccc(Cl)c2)c(C)c1[N+](=O)[O-]
→ -14	-16	20563*	8.8	3	0	9
- CC(CC(=O)NC1CCCCC1)=NNC(=O)c1ccccn1
→ x	8	x	6.0	x	6	7
- CCOc1ccc(C(=O)NCC(=O)N2CCCCCCC2)cc1OCC
→ -2	4	u	3.1	-3	2	0
- COc1ccc(/C(C)=N/NC2=NCCN2)cc1Cl
→ -15	x	3379	x	2	x	x
- CC(=O)c1nnn(-c2ccccc2C#N)c1C
→ -18	6	4865	4.8	-4	1	7
- CN(C)/C=C(\C#N)C(=O)NN=Cc1ccc(Cl)cc1
→ x	4	x	1.2	x	0	-3
- Cc1nnc(NC(=O)C23CC4CC(C)(CC(C)(C4)C2)C3)s1
→ -13	x	3075	x	-10	x	x
- O=C(c1cccc(F)c1)N1CCN(c2cc(N3CCCCC3)c(F)cc2[N+](=O)[O-])CC1
→ 3	-14	20200*	0.7	1	1	0
- Cc1cc(C)n2nnnc2c1C#N
→ -13	0	3840	0.1	3	-5	0
- Cc1cc(NC(=O)c2coc(=O)c(Br)c2)ccc1C(C)C
→ -54	2	4250	1.1	8	-4	-2
- CC(O)CNC12CC3CC(CC(C3)C1)C2 (configuration not stated)
→ -7	-12	3844	-0.5	-4	0	0
- CC(C)(C)c1cc(C(=O)NCc2cc(F)cc3c2OCOC3)n(Cc2ccccc2)n1
→ -33	-10	4231	2.3	-5	-2	-13
- COC(=O)[C@@H]1C[C@H]1[C@@H](NP(=O)(c1ccccc1)c1ccccc1)c1ccccc1
→ -19	x	3063	x	6	x	x
- CCOc1ccc(N2C(=O)Cc3ccccc3C2=O)cc1
→ -7	-7	4047	2.4	0	-6	1
- COc1ccc(NC(=O)C(=O)NCCC2=CCCCC2)c(OC)c1
→ -13	7	2568	3.0	4	7	2
- C/C(C=Nn1c(-c2cccnc2)n[nH]c1=S)=C\c1ccco1
→ x	-6	x	13	x	-2	11
- Cc1ccc(-n2ncc(Cl)c2C(=O)NCc2ccccc2)cc1
→ -32	28	3210	-1.9	5	8	5
- N=C1/C(=C/c2ccc(-c3cccc(C(=O)O)c3)o2)C(=O)N=C2SC=C(c3ccccc3)N12
→ -12	-11	2561	22	0	-12	5
- Cc1ccc(C(=O)NC(C)c2ccc(-n3ccnc3)cc2)cc1S(=O)(=O)N1CCOCC1 (configuration not stated)
→ -12	8	6726	-3.7	-6	-1	3
- NC(=NOC(=O)c1cc(-c2ccccc2)nc2ccccc12)c1ccccn1
→ x	4	x	9.9	x	7	9

Filtered by structure, those above containing an NH in an aromatic ring (two)
Values run as follows: PrP 5UTR inh	ugtP null kill	Autofluor counter	RN4220 kill	BJeLR viability	Mtb hypoxia inh	Mtb hypoxia inh growth
- O=C(O)c1ccc(Nc2nc3ccc(Cl)cc3[nH]2)cc1
→ -26	0	3023	0.5	-17	3	10
- C/C(C=Nn1c(-c2cccnc2)n[nH]c1=S)=C\c1ccco1
→ x	-6	x	13	x	-2	11

New compounds follow.
Values run as follows: PrP 5UTR inh	ugtP null kill	Autofluor counter	RN4220 kill	BJeLR viability	Mtb hypoxia inh	Mtb hypoxia inh growth
- Cc1ccc(S(=O)(=O)NCCC2(C(C)C)CCOC(C)(C)C2)cc1 (configuration not stated)
→ -7	-1	2463	6.3	-2	-12	-3
- NC(=O)C1CCCN(C(=O)c2ccc3nc(Cc4cccc(Cl)c4)oc3c2)C1 (configuration not stated)
→ -20	6	4853	2.6	2	10	-4
- CCO[C@@H]1OC(C(=O)Nc2ccccc2)=C[C@H](c2ccc(Br)cc2)[C@H]1CCCO
→ -7	x	3865	x	-9	x	x
- COc1cccc(/C=N/NC(=O)CCn2nnc3ccccc32)c1
→ -26	x	2533	x	1	x	x
- Cc1cc(C)cc(OCC(=O)Nc2nc(-c3cccnc3)cs2)c1
→ -12	2	u	0.1	-12	-2	0
- O=C(NCc1cccs1)c1ccc(Br)o1
→ -12	2	2542	5.3	-5	x	x
- O=C(NCCCN1CCOCC1)c1ccc2c(=O)n(Cc3ccc(Cl)cc3)c(=S)[nH]c2c1
→ -11	-2	5728	-0.4	0	3	10
- COc1ccccc1C1c2[nH]c3ccccc3c2C[C@H]2C(=O)N(C3CCN(Cc4ccccc4)CC3)CC(=O)N12 (some centres not stated)
→ -5	2	4061	-4.8	-3	10	9
- Cc1ccc(-c2nnn(CCOc3cccc(Br)c3)n2)cc1
→ 1	1	2338	1.2	2	-6	2
- Cc1cc(C)n(S(=O)(=O)c2cccc(Cl)c2Cl)n1
→ -10	-2	8256	12	5	18	5
- CCOC(=O)C(C)Oc1cccc2c(=O)n(CC(=O)NCc3ccc(F)cc3)ccc12 (configuration not stated)
→ 79*	2	5115	2.0	29	12	2
- c1ccc(C[C@H]2CN=C(Nc3ccccc3)N2CCC2CCCC2)cc1
→ -36	-22	4139	-12	x	9	25
- COc1ccc(NC(=O)CN(C)C(=O)CC2CCCCC2)cc1
→ -10	5	u	-0.3	-1	-4	-3
- Cc1cccc(-n2c(O)c(C=Nc3cccc(O)c3)c3ccccc3c2=O)n1
→ x	3	4871	4.7	-2	10	10
- O=S(=O)(c1ccccc1)[C@@]1(c2ccccc2)CC2ON=C(c3cccc(-c4ccccc4)c3)C2C1 (some centres not stated)
→ x	1	x	-2.1	x	10	13
- COC(=O)c1nnn(CC(=O)Nc2cccc(Cl)c2)c1C(=O)OC
→ -21	0	4551	6.1	-6	18	11
- COc1ccc(C2CC(=O)C=C(c3ccc(Cl)c(C(F)(F)F)c3)C2)cc1OC (configuration not stated)
→ x	52	x	-0.9	x	13	13
- Cc1ccc(Cn2c(C(=O)NCCCN3CCOCC3)cc3sccc32)cc1
→ 5	-1	24158*	2.7	-4	-7	7
- CC(=O)c1ccc(NC(=O)C(C)OC(=O)c2cccc(-n3cnnn3)c2)cc1 (configuration not stated)
→ 0	6	u	2.9	6	10	3
- CCOC(=O)N1CCC(n2c(=S)[nH]c3ccccc3c2=O)CC1
→ -1	-12	2423	-0.5	2	x	x
- Cc1ccc(NC(=O)CSCc2cc(=O)n3cc(C)sc3n2)c(C)c1
→ -11	8	6193	5.9	2	3	4
- C(=N\Nc1nn[nH]n1)/c1ccccc1
→ -23	x	5445	x	-4	x	x
- CCOc1ccc(/C=N/Nc2cc(C)nc(N3CCOCC3)n2)cc1
→ -15	x	6056	x	-2	x	x
- COc1ccc(S(=O)(=O)N2CCCCC2)cc1NC(=O)COC(=O)c1ccco1
→ -17	1	8481	-0.5	x	-8	7
- COc1ccc(/C(O)=C2/C(=O)C(=O)N(c3ncccn3)C2c2ccc(F)cc2)cc1 (configuration not stated)
→ -16	4	4091	3.6	0	13	8
- CSc1ncc(C(=O)Nc2ccccc2C)c(C)n1
→ -9	6	3901	2.4	1	2	3
- Cc1[nH][nH]c(=O)c1C(c1c(C)[nH][nH]c1=O)c1cn(C)c2ccccc12
→ -32	7	4800	2.6	x	2	4
- CCOC(=O)c1cnc(Nc2nc3ccccc3o2)nc1CSC(=S)N(CC)CC
→ -15	-9	2016	1.8	5	-5	6
- CCOc1ccc(NC(=S)N2C3CCCC2CC(NC(=O)C2CC2)C3)cc1 (configuration not stated)
→ -4	2	5717	1.4	1	-4	8
- O=C(NC1CCCCC1)OCCN1CCN(Cc2ccccc2)CCC1=O
→ x	1	x	7.1	5	1	0

Continued:
Values run as follows: PrP 5UTR inh	ugtP null kill	Autofluor counter	RN4220 kill	BJeLR viability	Mtb hypoxia inh	Mtb hypoxia inh growth
- [N-]=[N+]=NCC(c1ccccc1)N1CCN(Cc2ccccc2)CCC1=O (configuration not stated)
→ x	0	x	1.8	x	-7	3
- NC1=NC[C@@H](Cc2ccc(O)cc2)N1CC1CCCCC1
→ -27	x	3164	x	-5	x	x
- CSc1ccccc1NC(=O)CN1CCCCC1C (configuration not stated)
→ 49	11	4165	9.8	0	22	6
- CC1(C)OC(=O)C(=CSc2ccc(C(C)(C)C)cc2)C(=O)O1
→ -16	16	3998	-0.4	-7	-1	5
- COc1ccc(C2=NOC(Cn3nc(C(=O)NCc4ccco4)cc3-c3ccccc3)C2)cc1 (configuration not stated)
→ -8	8	3455	3.7	-9	7	13
- Cc1cc(/C=C2\NC(=S)NC2=O)c(C)n1-c1cccnc1
→ 1	5	3431	1.6	-1	-3	-9
- O=C(c1ccco1)N1CCN(C(=O)C2CCCN(S(=O)(=O)Cc3ccccc3)C2)CC1 (configuration not stated)
→ -17	13	4443	6.9	2	x	x
- CN(C(=O)C1CC1)C1CCS(=O)(=O)C1 (configuration not stated)
→ 2	-5	3896	-0.7	4	-2	6
- Cc1nc2cc(NC(=O)C3COc4ccccc4O3)ccc2s1 (configuration not stated)
→ -54	8	4274	2.7	-1	18	9
- COc1ccc(C(=O)n2nc(-c3ccco3)nc2N)cc1OC
→ -22	7	4480	7.3	-31	-4	6
- CC1CCCN(c2nc3c(c(=O)n(C)c(=O)n3C)n2CCSc2nc3ccccc3o2)C1 (configuration not stated)
→ -10	-6	5438	-1.6	-4	7	7
- COc1ccc(NC(=O)c2ccc3c(=O)n(Cc4ccco4)c(=S)[nH]c3c2)c(OC)c1
→ -20	-4	4170	-0.8	-16	13	10
- CCOc1ccc(-n2c(C)cc(/C=N\NC(=O)CC(=O)NC3CCCCC3)c2C)cc1
→ -13	x	2423	x	8	x	x
- Cc1ccc(OCCN(C)C(=O)C2CCC(=O)N(CC3CCCCC3)C2)cc1 (configuration not stated)
→ -34	6	5361	1.8	13	1	1
- CC(=O)Nc1ccc(S(=O)(=O)N2CCN(S(=O)(=O)N3CCCCCC3)CC2)cc1
→ -12	-1	5091	-0.2	4	x	x
- COc1ccc(C(=O)COC(=O)CCN=C2NS(=O)(=O)c3ccccc32)cc1OC
→ -24	9	20801*	4.4	-9	2	11
- COC(=O)C(CCCCNC(=O)OCc1ccccc1)NC(=O)CN (configuration not stated)
→ -8	-3	2813	3.9	-5	x	x
- Cc1cccc(C)c1NC(=O)CN1CCN(CC(=O)c2cc(C)n(C3CC3)c2C)CC1
→ -16	3	3883	3.6	x	8	-3
- CCOC(=O)c1c(NC(=O)c2cc(-c3ccc(Cl)s3)nc3ccccc23)sc(C(N)=O)c1C
→ -18	x	9709	x	10	x	x
- CC(C)SCC(=O)Nc1ncc2c(n1)-c1ccccc1CC2
→ -7	6	5008	6.3	-3	10	8
- CCCC(=O)N(Cc1cc2cc(C)ccc2[nH]c1=O)c1ccccc1OC
→ -23	-5	3510	-9.7	4	17	7
- O=C(NCc1ccccc1)C(=O)NCC(c1ccco1)N1CCN(c2ccccc2F)CC1 (configuration not stated)
→ -10	-3	5484	1.8	2	11	8
- COc1ccc(NC(=O)N2CCC(c3nc(-c4cccs4)no3)CC2)cc1
→ x	4	9612	3.0	-9	-4	-2
- O=C(O)c1ccc(C=NO)cc1
→ x	-2	x	4.8	x	16	6
- CC(=O)c1cccc(NC(=O)CCCCCn2nnc3ccccc3c2=O)c1
→ -22	-2	3368	-1.5	1	6	-5
- CN(CC(=O)Nc1ccc(N2CCOCC2)cc1)C(=O)c1cn(-c2ccccc2)nc1-c1ccccc1
→ -16	7	5395	-0.3	10	5	-9
